miR-21 FLuc = miR-21 reporter, rising signal; AID 2288; HeLa miR-21 FLuc reporter, luciferase, 48 h; Potency, µM (highest dose often 38.3 µM), for the others: at the top dose reporter change, positive = more light; 340,000 tested, under 10 active; active = well fitted rising curve with a large enough effect; inconclusive = small, poorly fitted or top-dose-only effect; inactive = no such curve, though single readings can be large or run the other way;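 further: % of control where 0% means no effect; miR-21 action dims this reporter so a rising signal means less miR-21 action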
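Using DMEM plus 10% FBS, HeLa miR-21-FLuc cells are incubated with test compounds (final up to about 40uM) for 48 hours; firefly luciferase signal is then imaged following reagent-mediated lysis.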
Rango-impB inh = Rango-importin beta binding inhibition | Q14974 | Rango CFP/YFP FRET sensor + importin beta, 45 min | Potency, µM (highest dose often 92.2 µM), inactives show top-dose inhibition of complex formation | 340,000 compounds, 0.031% hits | AID 540263; active = rising FRET ratio curve, often small or poorly fitted; inconclusive = mostly compound fluorescence or quenching in the first reads; inactive = flat curves in all reads;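 further: potency means the concentration at half of the fitted maximal effect; 0% = DMSO wells and 100% = buffer wells lacking importin beta; nearly all actives have a fitted effect of over 15% in size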
Target sequence (Q14974 whole entry, looked up): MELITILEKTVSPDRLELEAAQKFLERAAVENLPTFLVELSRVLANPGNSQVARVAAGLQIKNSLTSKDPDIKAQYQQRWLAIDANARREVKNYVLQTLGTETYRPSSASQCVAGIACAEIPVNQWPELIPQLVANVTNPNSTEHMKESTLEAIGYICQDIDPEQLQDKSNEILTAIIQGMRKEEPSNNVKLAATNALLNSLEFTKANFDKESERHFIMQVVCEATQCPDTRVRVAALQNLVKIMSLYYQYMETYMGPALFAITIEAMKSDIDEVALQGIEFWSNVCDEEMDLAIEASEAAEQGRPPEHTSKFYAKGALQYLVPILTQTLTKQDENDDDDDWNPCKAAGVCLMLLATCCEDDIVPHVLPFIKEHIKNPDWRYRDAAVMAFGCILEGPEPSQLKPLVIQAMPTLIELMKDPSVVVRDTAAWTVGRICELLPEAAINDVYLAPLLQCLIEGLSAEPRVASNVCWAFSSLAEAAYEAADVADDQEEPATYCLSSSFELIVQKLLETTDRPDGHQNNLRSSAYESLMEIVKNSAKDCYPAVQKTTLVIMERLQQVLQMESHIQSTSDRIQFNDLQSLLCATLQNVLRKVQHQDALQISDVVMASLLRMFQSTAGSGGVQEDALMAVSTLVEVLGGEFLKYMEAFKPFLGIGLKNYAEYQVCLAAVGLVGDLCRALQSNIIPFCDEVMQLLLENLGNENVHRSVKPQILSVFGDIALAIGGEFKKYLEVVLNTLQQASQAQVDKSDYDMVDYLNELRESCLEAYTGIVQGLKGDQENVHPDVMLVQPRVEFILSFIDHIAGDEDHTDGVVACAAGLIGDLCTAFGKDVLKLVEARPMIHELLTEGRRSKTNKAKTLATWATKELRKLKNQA
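FRET biosensor (snurportin 1 IBB flanked by EYFP and cerulean), 50 nM, with compound 5 min, then 0.125 microM importin beta in PBS, 1 mM DTT, 0.02% Tween-20, 0.1% BSA. CFP/YFP ratio read after 45 min at room temperature; pre-read flags interference.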
Rango release inh = inhibitors of RanGTP-induced Rango-importin beta complex dissociation; Potency, µM (highest dose often 46.1 µM), for inactives: top-dose activity change, negative = inhibition; O95149+P62826; Biochemical FRET Rango-importin beta, RanGTP-induced dissociation; 340,000 compounds, 0.071% hits; active means falling FRET ratio curve, often poorly fitted, with flat reads before Ran was added; inconclusive means other falling curves, or compound fluorescence or quenching; inactive means flat or rising ratio curve;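 further: potency means the concentration at half of the fitted maximal effect; % of control where 0% means no effect; nearly all actives have a fitted effect of over 45% in size; -100% = wells without RanGTP and RCC1; the record marks most hits as doubtful in a second field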
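Compounds preincubate 5 min with complex of recombinant Rango and importin beta in PBS with 1 mM DTT. Ran (0.6 uM) loaded with 2 mM GTP plus 0.2 uM RCC1 starts dissociation; FRET is recorded 45 min later.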
GLA inh pH 4.5 = alpha-galactosidase A (human) inhibition, pH 4.5. AID 1467. 230,000 tested, under 10 active. activity change, negative = inhibition, % at 105 µM. purified enzyme, 4-MU-alpha-Gal fluorescence, pH 4.5; inconclusive = small, poorly fitted or top-dose-only inhibition, or a rising curve; inactive = flat fitted curve, though single readings scatter; no compound was filed as active;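 further: 0% = full activity with enzyme and -100% = basal without enzyme; dose as in the result columns while the protocol names 77 µM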
Starred values were filed as active, the others as inactive; ? = inconclusive; / = no result given; & = joins results of further samples; [ ] = dose if it differs, or a comment. Only part of the results is shown (hit frequency here may not be typical).

Letter code – A = miR-21 FLuc; B = Rango-impB inh; C = Rango release inh; D = GLA inh pH 4.5
COC(=O)c1ccc(Cl)c(NS(=O)(=O)c2ccc3c(c2)OCCO3)c1
  A: 13.9%	B: -1.4%	C: 19.8%	D: 8.8

CCOC(=O)c1c(C)[nH]c(C(=O)OC(C)C(=O)NCc2ccccc2)c1C (stereo not given)
  A: /	B: -0.5%	C: 0.3%	D: /

C(=N\NC(=Nc1ccccc1)c1ccccn1)/c1ccccn1
  A: -16.6%	B: 0.2%	C: -1.4%	D: 4.6

N/C(Cc1ccc(Cl)cc1)=N\OC(=O)c1cccc2ccccc12
  A: ?	B: 1.3%	C: 0.6%	D: -3.0

CC1=NN(c2cccc(C(=O)O)c2)C(=O)/C1=C\C=C/c1ccccc1
  A: -3.8%	B: -2.4%	C: -7.8%	D: -9.1

COCCCN(Cc1cccs1)S(=O)(=O)c1c[nH]c(C(=O)OC)c1
  A: -0.4%	B: -1.5%	C: 16.7%	D: /

CC1CCCN(C(=O)CCS(=O)(=O)c2ccc3c(c2)NC(=O)C(C)S3)C1 (stereo not given)
  A: 5.3%	B: 0.7%	C: -8.7%	D: /

NS(=O)(=O)c1ccc(CCNC(=O)CN2CCN(Cc3cccc4ccccc34)CC2)cc1
  A: 4.4%	B: 0.2%	C: -10.0%	D: /

CN(C)c1ccc(C(=O)c2ccc(N(C)C)c(N)c2)cc1N
  A: 1.6%	B: -0.1%	C: 4.8%	D: -2.8

COCCCNC(=O)Cn1cc(/C=C(\C#N)C(=O)NC2CC2)c2ccccc21
  A: -6.3%	B: ?	C: 19.3%	D: /

CCOC(=O)CCC(NC(=O)c1ccc(CNc2nc3cc(C(F)(F)F)ccc3nc2C(=O)OCC)cc1)C(=O)OCC (stereo not given)
  A: /	B: ?	C: ?	D: /

O=C(COC(=O)/C=C/c1ccc(F)cc1)Nc1cc(C(F)(F)F)ccc1N1CCOCC1
  A: -9.6%	B: -1.4%	C: -6.7%	D: 0.7

Brc1cc2c(cc1COc1ccc(-c3nn[nH]n3)cc1)OCO2
  A: -16.9%[7.66 µM]	B: -0.7%	C: 45.7%	D: 1.9

CC1CCCN(S(=O)(=O)c2ccc(Br)s2)C1 (stereo not given)
  A: -4.8%	B: -0.4%	C: -1.1%	D: 0.3

c1ccc(SCCOCCn2cncn2)cc1
  A: -5.0%	B: -0.4%	C: -10.1%	D: 0.3

NS(=O)(=O)c1ccc(NC(=S)N2CCN(c3ccccc3Cl)CC2)cc1
  A: 7.3%	B: 2.1%	C: 1.5%	D: 0.4

CCOC(=O)c1ccc(NC(=O)CSc2nc(=O)n(CCN3CCOCC3)c3c2CCC3)cc1
  A: /	B: -2.3%	C: -11.4%	D: /

CCOC(=O)N1CCN(c2c(N3CCN(c4ccccn4)CC3)c(=O)c2=O)CC1
  A: -0.9%	B: -0.8%	C: -1.0%	D: -7.2

COCCCNC(=O)CN1C(=O)COc2ccc(S(=O)(=O)N3CCCCCC3)cc21
  A: -4.3%&-0.8%	B: -2.9%	C: -4.8%	D: /

CCOP(=O)(Cc1ccc(C(C)(C)CC(C)=O)o1)OCC
  A: -3.4%	B: -2.0%	C: 1.2%	D: 0.1

Cc1ccc(NC(=O)COC(=O)Cn2nc(-c3ccc(F)cc3)oc2=O)cc1C
  A: /	B: 0.0%	C: -9.5%	D: /

COCCCNC(=S)N(Cc1ccccc1)Cc1nc2ccccc2c(=O)[nH]1
  A: -7.8%	B: 0.4%	C: 21.6%	D: -3.1

CC(C)C(=O)NNS(=O)(=O)c1ccccc1
  A: -2.4%	B: 4.4%	C: 3.5%	D: -5.0

Cc1cc(C)nc(SCc2cc(=O)c(OC(=O)c3cccc([N+](=O)[O-])c3)co2)n1
  A: -9.5%	B: 3.0%	C: 0.6%	D: -24.5

CN(C)S(=O)(=O)c1ccc(C(=O)Nc2ccc(CCC(=O)N3CCCC3)cc2)cc1
  A: 6.9%	B: -1.6%	C: -0.3%	D: -6.1

Carrying on:
Letter code – A = miR-21 FLuc; B = Rango-impB inh; C = Rango release inh; D = GLA inh pH 4.5
CCCCc1cc(=O)oc2cc(OCc3cc(OC)c(OC)c(OC)c3)c(Cl)cc12
  A: -3.9%	B: 2.8%	C: -19.9%	D: 0.7

COc1ccc(F)cc1S(=O)(=O)Nc1ccc2c(c1)OCCO2
  A: -7.0%	B: -1.4%	C: 1.7%	D: 5.6

COC(=O)c1[nH]c2ccc(Cl)cc2c1NC(=O)CCN1CCN(C2CCCCC2)CC1
  A: -12.8%	B: -2.7%	C: -12.9%	D: -16.3

CCCc1ccc2oc(C(=O)NCCc3nc(C(=O)OCC)cs3)c(C)c2c1
  A: 5.0%	B: 0.3%	C: -4.3%	D: /

COc1ccccc1N(CC(=O)NC1CCCCC1)C(=O)c1csnn1
  A: 0.2%	B: -0.1%	C: 22.0%	D: -1.7

CCOC(=O)c1c(NC(=S)NNS(=O)(=O)c2ccc(Br)cc2)sc2c1CCCCC2
  A: 23.6%	B: 1.1%	C: 13.7%	D: /

N#C/C(=N\Nc1ccc(S(=O)(=O)N2CCCCCC2)cc1)C(N)=S
  A: 6.6%	B: -1.2%	C: 6.5%	D: -17.6

Cn1c2c(c(=O)n(C)c1=O)C(CC(=O)Nc1ccccc1F)C(=O)N2 (stereo not given)
  A: -1.1%	B: 0.0%	C: 0.3%	D: 3.0

CCn1c(=O)cc(SCC(=O)N2CCN(Cc3ccc4c(c3)OCO4)CC2)c2ccccc21
  A: 7.2%	B: -1.8%	C: 4.9%	D: -4.9

CCCCCCC(C)n1[nH]c(=O)c2c(C)cc(C)nc21 (stereo not given)
  A: 0.7%	B: 0.2%	C: 10.1%	D: -6.2

CCCCOc1ccc(C(=O)O)cc1
  A: -0.3%	B: -0.5%	C: 11.1%	D: 0.4

COc1ccccc1N1CCN(C2CCCN(C(=O)c3cc(C4CC4)on3)C2)CC1 (stereo not given)
  A: 2.1%	B: -3.8%	C: -15.6%	D: /

COc1ccc(C(=O)Nc2ccc(N3CCN(C)CC3)cc2)cc1OC
  A: -49.4%	B: 0.6%	C: ?	D: /

Cc1ccc(NC(=O)c2ncn(CCCN[C@H](C)c3cccc4ccccc34)n2)cc1C
  A: /	B: 0.7%	C: -9.1%	D: /

C/C(N)=C(/C#N)C(=O)COC(=O)CC12CC3CC(CC(C3)C1)C2
  A: -8.5%	B: -0.5%	C: -7.8%	D: -6.7

Nc1ccc2c(c1)Cc1cc(N)c(Br)cc1-2
  A: /	B: -2.3%	C: -0.5%	D: /

Cc1ccc(-n2c(=O)[nH]cc(C(=O)N3CCc4ccccc43)c2=O)cc1C
  A: -2.2%	B: -2.8%	C: 24.1%	D: 8.7

O=C(NCc1ccco1)C(=O)NCC1OCCN1S(=O)(=O)c1ccccc1 (stereo not given)
  A: -2.2%	B: 0.6%	C: -8.7%	D: 7.5

COc1ccc(-n2c(=O)/c(=C\c3cccs3)s/c2=C(/C#N)C(=O)N2CCN(C)CC2)cc1
  A: -45.8%	B: ?	C: ?	D: -13.5

CC1CCN(C(=O)NC(=O)c2ccccc2)CC1
  A: -3.4%	B: 0.2%	C: 8.5%	D: /

O=C(NNc1c2ccccc2nc2ccccc12)C(O)c1ccccc1 (stereo not given)
  A: 6.7%	B: 1.5%	C: -24.2%	D: -4.7

O=C(CSc1nc(=O)n2ccccc2n1)NCCc1ccccc1
  A: /	B: -0.6%	C: 7.8%	D: /

CC(OC(=O)c1cc(Br)ccc1O)C(=O)NC1(C#N)CCCCC1 (stereo not given)
  A: /	B: 0.4%	C: -1.8%	D: /

COc1ccccc1N=c1oc2cc(O)ccc2cc1C(=O)NCC1CCCO1 (stereo not given)
  A: -66.4%	B: ?	C: ?	D: 18.8

CSc1ccccc1NC(=O)C1CC(c2c(F)cccc2Cl)=NO1 (stereo not given)
  A: -20.1%	B: -0.5%	C: 0.5%	D: /

New compounds follow.
The line under a structure holds: miR-21 FLuc	Rango-impB inh	Rango release inh	GLA inh pH 4.5
> CC1(c2nnc(-c3cccc(Cl)c3)o2)CC(c2ccccc2F)=NO1 (stereo not given)
→ /	0.9%	-4.2%	/
> Cc1cc(C)cc(NC(=O)Cn2cnc3c(nnn3Cc3ccc(F)cc3)c2=O)c1
→ -0.1%	0.6%	13.9%	-0.6
> COCCCN1CC(=O)N2Cc3[nH]c4ccccc4c3C[C@H]2C1=O
→ -0.7%	-0.8%	-13.2%	/
> CCC(C)Nc1nc(OC)nc(N(C)C#N)n1 (stereo not given)
→ -0.7%	-2.0%	-14.9%	5.6
> COc1cccc(-n2c(SCC(=O)NCc3ccco3)nnc2-c2c[nH]c3ccccc23)c1
→ -14.4%	1.3%	-5.4%	6.3
> Cc1ccc2c(C)c(C(=O)NCc3ccc(S(N)(=O)=O)cc3)oc2c1C
→ -6.7%	-0.1%	4.6%	0.1
> CC1(C)NC(=O)N(CCCCSc2ccc(Cl)cc2)C1=O
→ -5.0%	-4.2%	?	1.2
> O=C(COC(=O)C1COc2ccccc2O1)Nc1ccc2c(c1)CCC2 (stereo not given)
→ -7.7%	-4.2%	1.1%	3.0
> O=C(O)CSc1ccc2ccccc2n1
→ -3.6%	-0.2%	10.8%	9.5
> O=C(CCCNS(=O)(=O)c1cccc2nsnc12)NCc1ccc(F)cc1
→ 0.0%	0.9%	-2.1%	3.8
> COC(=O)[C@@H]1C2CCC(C(=O)Nc3ccccc3)(CC2)[C@@H]1C(=O)OC
→ -0.1%	0.7%	19.2%	1.6
> C=CCN=c1scc(-c2ccc3c(c2)NC(=O)CO3)n1/N=C(\C)c1ccccn1
→ 21.4%	?	?	0.5
> COc1cccc(C(=O)Nc2cccnc2)c1OC
→ -17.7%	1.7%	2.0%	1.1
> Cc1cccc(C)c1OCC(=O)OCC(=O)c1ccc2c(c1)NC(=O)CO2
→ -3.5%	1.1%	1.6%	-6.6
> COc1ccc(S(=O)(=O)N(C)CC(=O)NCc2ccco2)cc1Cl
→ -8.1%	-0.4%	0.3%	/

Reformatted with each value named: part of the list above
Cc1ccc2c(C)c(C(=O)NCc3ccc(S(N)(=O)=O)cc3)oc2c1C
  miR-21 FLuc = -6.7%	Rango-impB inh = -0.1%	Rango release inh = 4.6%	GLA inh pH 4.5 = 0.1

CC1(C)NC(=O)N(CCCCSc2ccc(Cl)cc2)C1=O
  miR-21 FLuc = -5.0%	Rango-impB inh = -4.2%	Rango release inh = ?	GLA inh pH 4.5 = 1.2

Compound profiles, as listed above:
`CC1(c2nnc(-c3cccc(Cl)c3)o2)CC(c2ccccc2F)=NO1` (stereo not given) is listed with miR-21 FLuc = /; Rango-impB inh = 0.9%; Rango release inh = -4.2%; GLA inh pH 4.5 = /
`C=CCN=c1scc(-c2ccc3c(c2)NC(=O)CO3)n1/N=C(\C)c1ccccn1` is listed with miR-21 FLuc = 21.4%; Rango-impB inh = ?; Rango release inh = ?; GLA inh pH 4.5 = 0.5

Next part:
The line under a structure holds: miR-21 FLuc	Rango-impB inh	Rango release inh	GLA inh pH 4.5
> COc1ccc(Br)cc1CN(C)CC(=O)NCCc1ccccc1
→ -1.7%	-1.3%	9.1%	-0.4
> O=C(O)CSc1nc2ccc(C(=O)c3ccccc3)cc2[nH]1
→ -1.7%	4.6%	-7.4%	/
> CC(=O)c1ccc(N2CCN(C(=O)Nc3ccc(F)cc3F)CC2)cc1
→ -8.3%	-2.8%	12.6%	-2.1[21.1 µM]
> CC(CN1CCCCC1)OC(=O)C(C)(c1ccccc1)c1ccccc1 (stereo not given)
→ 1.7%	0.3%	4.8%	-8.7
> O=C(Cc1cccc(NC(=O)C2CCN(C(=O)C3CCCCC3)CC2)c1)Nc1cccc(C(=O)N2CCOCC2)c1
→ /	2.6%	23.5%	/
> NC(=O)c1ccc(NC(=O)CCC(=O)c2cccs2)cc1
→ 3.2%	-2.7%	-11.2%	/

Only Rango release inh, for some of the entries so far:
smiles | Rango release inh
O=C(O)CSc1nc2ccc(C(=O)c3ccccc3)cc2[nH]1 | -7.4%
CC(=O)c1ccc(N2CCN(C(=O)Nc3ccc(F)cc3F)CC2)cc1 | 12.6%
CC(CN1CCCCC1)OC(=O)C(C)(c1ccccc1)c1ccccc1 (stereo not given) | 4.8%
O=C(Cc1cccc(NC(=O)C2CCN(C(=O)C3CCCCC3)CC2)c1)Nc1cccc(C(=O)N2CCOCC2)c1 | 23.5%
NC(=O)c1ccc(NC(=O)CCC(=O)c2cccs2)cc1 | -11.2%

High-throughput results (PubChem BioAssay)
